# Bioassay records as filed in PubChem.
# Choline anaer gr: blocks anaerobic gram-negative growth on choline. AID 1963822. Gram-negative bacterium anaerobic choline minimal medium, absorbance growth; hits give low values; many inactives read as strong as hits in the columns shown. calls only. 55,000 compounds, 0.2% hits;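 active = growth z-score on choline under -2 at 7 or 20 h with little or no fall on glycerol, limits in tiers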;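 also: stock transfer was 300 nL into about 50 µL; the organism is E. coli; final concentration not given here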
# Choline anaer gr early: second read-out of Choline anaer gr, no call of its own (marks repeat the call); z-score; measured here: choline growth z-score, timepoint 1;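 score of optical density at 7 h as mean of two plates; lower means less growth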
# Numbers without * were called inactive; i = inactive; & = joins results of further samples. Not all compounds are listed. The share of hits here may be higher or lower than overall.
# Preview:
SMILES,Choline anaer gr,Choline anaer gr early
CCc1ccc2c(c1)[C@H]1OCC[C@H]1C(c1cc(O)ccc1Br)N2 (some centres not stated),i,1
COc1ccc(Cc2c(C)nn(-c3nc(C)c(C(=O)N4CCCC4)s3)c2C)cc1,i,0.25
Oc1ccccc1O,i,0.14
CC(C)n1c(=O)c(=O)[nH]c2cc(-c3noc(-c4ccc(C(C)(C)C)cc4)n3)ccc21,i,1.2
CC1CCN(C(=O)C(C)Sc2nc(-c3ccccc3)cc(C(F)(F)F)n2)CC1 (configuration not stated),i,0.72
COc1ccc(CNC(=O)c2ccc(Oc3nccnc3Sc3ccc(Cl)cc3)cc2)cc1,i,0.3
CC(=O)Nc1ccc(S(=O)(=O)NCCc2cn3ccsc3n2)cc1,i,-1.3
CC(=O)Nc1ccc(C)cc1-c1nnc(SC(C)C(=O)Nc2cccc(C)c2C)[nH]c1=O (configuration not stated),i,-2
COc1ccc(C2=C(C)C(N3CCC(C(=O)NCCN4CCOCC4)CC3)=NS2(=O)=O)cc1,i,-1.5
CCCC(=O)Nc1c(C)nc(Nc2ccc(OC)cc2)nc1Nc1ccc(OC)cc1,i,-1.3
CC1CCN(CCCNC(=O)c2cc(-c3ccccn3)nc3ccccc23)CC1,i,-0.38
CCCSc1nc2c(c(=O)[nH]1)C(c1sccc1C)C(C(=O)OC)=C(C)N2 (configuration not stated),i,1.4
COc1ccc(C2(c3nc(Cn4cnc(S(=O)(=O)N5CCC(C)CC5)c4)no3)CC2)cc1,i,0.17
O=C(c1cccc(Cl)c1)N1CCN(c2cc(=O)n3nc(-c4ccccc4)sc3n2)CC1,i,0.95
CCc1cc(-c2csc(S(=O)(=O)NCCc3ccc(S(N)(=O)=O)cc3)c2)on1,i,-1.1
Cc1nccn1-c1cc(N2CCC3(CC2)OCCO3)nc2ccnn12,i,0.92

# Results, from the start:
SMILES,Choline anaer gr,Choline anaer gr early
CCc1ccc2c(c1)[C@H]1OCC[C@H]1C(c1cc(O)ccc1Br)N2 (some centres not stated),i,1
COc1ccc(Cc2c(C)nn(-c3nc(C)c(C(=O)N4CCCC4)s3)c2C)cc1,i,0.25
Oc1ccccc1O,i,0.14
CC(C)n1c(=O)c(=O)[nH]c2cc(-c3noc(-c4ccc(C(C)(C)C)cc4)n3)ccc21,i,1.2
CC1CCN(C(=O)C(C)Sc2nc(-c3ccccc3)cc(C(F)(F)F)n2)CC1 (configuration not stated),i,0.72
COc1ccc(CNC(=O)c2ccc(Oc3nccnc3Sc3ccc(Cl)cc3)cc2)cc1,i,0.3
CC(=O)Nc1ccc(S(=O)(=O)NCCc2cn3ccsc3n2)cc1,i,-1.3
CC(=O)Nc1ccc(C)cc1-c1nnc(SC(C)C(=O)Nc2cccc(C)c2C)[nH]c1=O (configuration not stated),i,-2
COc1ccc(C2=C(C)C(N3CCC(C(=O)NCCN4CCOCC4)CC3)=NS2(=O)=O)cc1,i,-1.5
CCCC(=O)Nc1c(C)nc(Nc2ccc(OC)cc2)nc1Nc1ccc(OC)cc1,i,-1.3
CC1CCN(CCCNC(=O)c2cc(-c3ccccn3)nc3ccccc23)CC1,i,-0.38
CCCSc1nc2c(c(=O)[nH]1)C(c1sccc1C)C(C(=O)OC)=C(C)N2 (configuration not stated),i,1.4
COc1ccc(C2(c3nc(Cn4cnc(S(=O)(=O)N5CCC(C)CC5)c4)no3)CC2)cc1,i,0.17
O=C(c1cccc(Cl)c1)N1CCN(c2cc(=O)n3nc(-c4ccccc4)sc3n2)CC1,i,0.95
CCc1cc(-c2csc(S(=O)(=O)NCCc3ccc(S(N)(=O)=O)cc3)c2)on1,i,-1.1
Cc1nccn1-c1cc(N2CCC3(CC2)OCCO3)nc2ccnn12,i,0.92
CCCCS(=O)(=O)N1CCC2(C1)C(=O)N(C)c1ccccc12 (configuration not stated),i,0.12
CC(=O)Nc1c2n(c3ccc(F)cc13)CC(C)(C(=O)NC1CCCC1)N(c1cc(C)ccc1C)C2=O (configuration not stated),i,0.12
Cc1cc(C)cc(NC(=O)c2ccc3cccc(O)c3n2)c1,i,-0.36
Cc1cccc(NC(=O)Nc2ccc(Nc3cc(N(C)C)nc(C)n3)cc2)c1,i,1.6
COc1ccc(C2=NC3(CCNCC3)NC(c3cc(Br)ccc3O)C2)cc1 (configuration not stated),i,-1.5
Cc1nn(-c2nc3ccccc3[nH]2)c2c1C(c1cc(F)ccc1F)CC(=O)N2 (configuration not stated),i,-0.51
Cn1c(=O)n(C)c2cc(CNc3ccc4c(c3)OCCO4)ccc21,i,0.97
CSc1ccccc1N1CCN(CCCCCC(=O)NC2CCCc3ccccc32)CC1 (configuration not stated),i,0.08
CC1(C)C(=O)N(CC(=O)NCc2ccccn2)c2ccc(S(=O)(=O)N3CCCCC3)cc21,i,-0.56
O=C(CCc1nc2ccccc2n(CC(=O)Nc2cc(F)ccc2F)c1=O)NCc1ccccc1,i,0.09
Cc1nc2cc(-c3noc(-c4ccc(F)cc4)n3)ccc2o1,i,-1.1
CCOC(=O)c1[nH]c(C)c(CN(Cc2ccc(C)cc2)C(=O)Nc2cc(Cl)ccc2OC)c1C,i,2.3
COc1ccc(Cn2c(CCC(=O)Nc3ccccc3)nc3cccnc32)cc1,i,1.1
O=C(O)CN1C(=O)COc2ccc(Cl)cc21,i,1
O=c1c(S(=O)(=O)N2CCCC2)cccn1Cc1c(F)cccc1Cl,i,-0.82
COCC(C)NC(=O)C1CC(c2c(F)cccc2Cl)=NO1 (configuration not stated),i,0.79
Cc1ccsc1CC1C(=O)Nc2ccc(Br)cc21 (configuration not stated),i,-1.5
COc1ccc2nc(NC(=O)C3CCN(c4nc(-c5ccc(OC)c(OC)c5)no4)CC3)sc2c1,i,0.55
COc1ccc(S(=O)(=O)NCCn2c(-c3ccc(F)cc3)nc3cccnc32)cc1,i,-1.2
CCn1cnnc1C1CCCN(Cc2cccc(C)c2)C1 (configuration not stated),i,-0.06
O=C(C1CCCN(c2ccnc(-c3ccc(F)cc3)n2)C1)N1CCN(Cc2ccccc2)CC1 (configuration not stated),i,0.24
CC1CCN(C(=O)Cn2cc(SCC(=O)N3CCCc4ccccc43)c3ccccc32)CC1,i,0.82
CCCC(=O)Nc1c(C(=O)OCC)[nH]c2ccc(F)cc12,i,1.3
Cc1ccc(NC(=O)C2CCN(c3nccn4nc(-c5ccccc5)cc34)CC2)cc1,i,-0.86
COc1ccccc1CNC(=O)c1ccc2cn[nH]c2c1,i,-0.69
O=C(Cn1nc(C(=O)Nc2ccccc2)ccc1=O)NCc1ccc2c(c1)OCO2,i,0.91
O=C1C(Cc2ccc(O)cc2)N2C(=O)CCN(C(=O)NCc3ccccc3)[C@H]2CN1Cc1cccc2ccccc12 (some centres not stated),i,0.35
COc1ccc(NC(=O)C(C)n2nnc3sc(-c4ccccc4)cc3c2=O)cc1Cl (configuration not stated),i,0.97
CCN1CCCC1CNS(=O)(=O)c1ccc2c(c1)C(C)(C)CN2C(=O)C1CC1 (configuration not stated),i,1.3
O=C(NC1CCCCC1)c1ccc(CN2C(=O)CCn3nc(-c4ccc(Cl)cc4)cc32)cc1,i,-1.6
C=CCn1c(SCC(=O)OC)nc2c(-c3ccccc3)cn(C)c2c1=O,i,-0.18
Cn1nc(COCc2ccccc2)c2c1CCN(S(=O)(=O)c1ccccc1Cl)C2,i,-0.5
CCc1cc(C(Nc2cccc(C)n2)c2ccsc2)c(NC(=O)c2ccccc2)s1 (configuration not stated),i,-0.35
CCCn1c(=O)c2ccccc2n2c(=O)n(CC(=O)NC3CCCCC3)nc12,i,-0.52
COc1cc(C2Nc3ccc(C)cc3[C@H]3OCC[C@@H]23)cc(I)c1OC (some centres not stated),i,0.41
COc1ccc(NC(=O)c2nc3c(=O)n(Cc4ccc(Cl)cc4)c4cc(C)ccc4n3n2)cc1,i,0.85
Cc1ccc(-c2nc3ccccc3c3nnc(SCC(=O)NC4CCCC4)n23)cc1,i,0.08
COc1ccc(CNC(=O)C2(C)CCCN(C(=O)COc3ccccc3)C2)cc1 (configuration not stated),i,-1.6
O=C(NC1CC1)C1CCCN(S(=O)(=O)c2cc(-c3noc(C4CCCC4)n3)cs2)C1 (configuration not stated),i,-1.9
O=S(=O)(NC1CCCCC1)c1ccc(-c2nnc(C3CCC3)o2)s1,i,0.15
COC(=O)c1ncn2c1C(=O)N(Cc1ccc(OC)cc1)C(C)(C(=O)NC1CCCCC1)C2 (configuration not stated),i,0.31
O=C(NC1CCCCC1)c1cccc(Oc2cc(-c3cccc(F)c3)ncn2)c1,i,-0.29
Cc1nnc(C(=O)Nc2cccc(C(=O)N3CCN(c4ccccn4)CC3)c2)s1,i,-0.13
C#CCOc1ccc2c(c1)c(C(=O)OCC)c(C)n2-c1ccccc1,i,1.1
# (list continues)
SMILES,Choline anaer gr,Choline anaer gr early
CCOc1ccc(C2Nc3c(C)cc(C)cc3[C@H]3OCCC[C@@H]23)cc1 (some centres not stated),i,0.39
CC(NC(=O)CCc1ccc(-n2cnc3cccnc32)cc1)c1ccccc1 (configuration not stated),i,-1.2
O=C(NCCC1=CCCCC1)C1CCN(c2ccc(N3CCOCC3)nn2)CC1,i,-0.75
O=C(C1CCCN(C(=O)C2CCCC2)C1)N1CCCC1 (configuration not stated),i,0.59
O=C(Nc1ccc(Br)cc1F)N1CCC(c2nc(-c3ccc(Cl)cc3)no2)CC1,i,0.87
Cc1ccc(NC(=O)Cn2cc(C(=O)c3ccccc3)c(=O)c3ccccc32)cc1,i,0.2
CCOC(=O)CNC(=O)N1CCCC1c1cc(C)on1 (configuration not stated),i,0.6
Cc1cccc(NC(=O)Cn2ncn3nc4c(c3c2=O)CCCC4)c1,i,0.93
Clc1cccc(C(Nc2ccc(Br)cc2)c2nnc(-c3ccccc3)o2)c1 (configuration not stated),i,1
CCCc1nc(C(C)(C)O)c(C(=O)OCc2oc(=O)oc2C)n1Cc1ccc(-c2ccccc2-c2nn[nH]n2)cc1,i,0.78&0.74&0.48
O=C(O)CCC(=O)Nc1nc2n(n1)C(c1ccc(Cl)cc1)C=C(c1ccccc1)N2 (configuration not stated),i,-0.42
COc1cccc(C2Nc3ccccc3-n3c(-c4ccccc4)c4c(=O)n(C)c(=O)n(C)c4c32)c1OC (configuration not stated),i,0.53
Clc1ccc2c(c1)nc1n2CCN(Cc2ccccc2)C1,i,-0.52
Clc1ccc(Cc2nc3nc4c(c(N5CCN(c6ccccn6)CC5)n3n2)CCCC4)cc1,i,-1.2
O=c1nc(SCc2ccc(F)cc2)c2c(n1CC1CCCO1)CCC2 (configuration not stated),i,0.29
CN(CC1COCCO1)c1ccc(NC(=O)c2ccccc2)cc1C(=O)O (configuration not stated),i,-1
Cc1cccc(NC(=O)Cn2nc(C)n3cccc3c2=O)c1C,i,0.17
CN(CCNC(=O)C1CCCN(c2nn3c(=O)c4c(nc3s2)CCCC4)C1)C1CCCCC1 (configuration not stated),i,-1.6
COc1ccccc1N1CCN(C(=O)c2cnc(Nc3ccc(C)c(Cl)c3)c3ccccc23)CC1,i,-0.62
CCn1ccc2cc(S(=O)(=O)N3CCCC(C(=O)N4CCC(C)CC4)C3)ccc21 (configuration not stated),i,0.63
CCN(CC)S(=O)(=O)c1c(C)[nH]c(C)c1-c1nnc(C2CCC2)o1,i,1.4
Cc1cccc(-c2nc3c4ccccc4n(CC(=O)c4c[nH]c5ccccc45)c(=O)n3n2)c1,i,-0.59
COc1ccc(-c2noc(Cn3nc(-c4ccccc4)c4ccccc4c3=O)n2)c(OC)c1,i,-0.07
O=C(c1ccc(N2CCN(c3ccccc3)CC2)nn1)N1CCc2ccccc21,i,-1
COc1cc(N2C=C(C#N)S(=O)(=O)c3ccc(Cl)cc32)c(OC)cc1Cl,i,0.68
O=C(Nc1ccccc1Cl)C1CCN(c2ccccc2)C1=O (configuration not stated),i,-1.2
Cc1ccc(C)c(NC(=O)Nc2ncc(-c3ccccc3)n2C)c1,i,0.21
Cc1cccc(C2CC(=O)Nc3c2c(C)nn3-c2nc(C)cc(C)n2)c1 (configuration not stated),i,-2.5
O=C(CSc1nc2ccccc2nc1Cc1ccccc1)NCC1CCCO1 (configuration not stated),i,1.7
CC(=O)Nc1ccc(C)cc1S(=O)(=O)NCc1ccc2c(c1)CCN2C(=O)c1cccc(C)c1,i,-1
CC(C)(C)NC[C@@H](O)COc1cccc2c1CCCC2=O,i,0.44
Fc1ccc(C2CCCN2Cc2cc(F)ccc2F)cc1 (configuration not stated),i,0.17
COc1cc(OC)cc(-c2noc(CCn3nc(-c4ccc5c(c4)OCO5)ccc3=O)n2)c1,i,0.61
O=C1CN(Cc2ccc(Br)cc2)S(=O)(=O)c2ccccc2N1Cc1ccccc1F,i,0.2
CCSc1nnc2c(n1)OC(c1ccc(Cl)cc1)Nc1ccccc1-2 (configuration not stated),i,-1.1
Cc1oc2ccc(OCc3ccccc3)cc2c1C(=O)Nc1ccc2c(c1)OCCO2,i,1.3
CCN1CCN(C2(CNC(=O)c3oc4ccc(Cl)cc4c3C)CCCCC2)CC1,i,-0.56
O=C(Nc1cccc(Cl)c1)N1CCC(c2nc(-c3ccccc3)no2)CC1,i,0.08
COCCCN1CCn2c(nc3cc(NC(=O)NC4CCCCC4)ccc32)C1,i,-1.1
NCCCC(N)(C(=O)O)C(F)F (configuration not stated),i,0.85
Cc1ccc(C)c(Cn2cnc3onc(C)c3c2=O)c1,i,0.88
O=S(=O)(Nc1ccc(-c2ccc(N3CCCC3)nn2)cc1)c1ccccc1,i,0.46
O=C(NCC(c1ccccc1)c1c[nH]c2ccccc12)c1ccccc1Cl (configuration not stated),i,2.1
Cc1nn(-c2nc3ccc(Br)cc3s2)c2c1C(c1cccc(F)c1)CC(=O)N2 (configuration not stated),i,-0.69
